RecA intein inh = Mtb RecA intein splicing inhibition | P9WHJ3 | cell-free RecA intein splicing, fluorescence | inhibition, %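 (about 9 µM by stock and volumes)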 | actives 0.75% (n = 290,000); in the data active = inhibition above about 30%; inconclusive = no clear call, values can overlap the other calls;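 also: 0% = vehicle wells and 100% = reference inhibitor control wells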
Target sequence (P9WHJ3 whole entry, looked up): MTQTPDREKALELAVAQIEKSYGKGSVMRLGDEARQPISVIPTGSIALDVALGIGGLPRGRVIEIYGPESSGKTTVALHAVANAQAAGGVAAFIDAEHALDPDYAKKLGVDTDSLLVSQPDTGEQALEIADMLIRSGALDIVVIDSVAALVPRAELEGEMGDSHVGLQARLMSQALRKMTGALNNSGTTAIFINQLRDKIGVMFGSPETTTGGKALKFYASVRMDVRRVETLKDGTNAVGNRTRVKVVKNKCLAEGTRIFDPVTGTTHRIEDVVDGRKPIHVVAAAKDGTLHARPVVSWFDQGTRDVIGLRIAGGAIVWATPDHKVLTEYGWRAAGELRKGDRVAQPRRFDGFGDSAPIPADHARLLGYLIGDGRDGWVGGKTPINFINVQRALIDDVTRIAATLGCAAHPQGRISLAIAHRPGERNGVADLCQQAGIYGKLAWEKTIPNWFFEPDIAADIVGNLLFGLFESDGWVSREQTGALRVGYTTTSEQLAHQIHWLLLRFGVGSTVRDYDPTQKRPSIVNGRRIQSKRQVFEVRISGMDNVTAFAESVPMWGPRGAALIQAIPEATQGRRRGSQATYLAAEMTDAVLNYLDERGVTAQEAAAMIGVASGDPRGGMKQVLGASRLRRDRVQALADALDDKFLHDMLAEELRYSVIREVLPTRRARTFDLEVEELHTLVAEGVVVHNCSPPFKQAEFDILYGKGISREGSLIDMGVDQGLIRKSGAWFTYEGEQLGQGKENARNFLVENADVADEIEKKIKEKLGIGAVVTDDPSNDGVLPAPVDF
Arbovirus anti = antivirals against arbovirus infection | actives 0.37% (n = 200,000) | inhibition, % at 10 µM | arbovirus infection cell-based antiviral screen;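 active = inhibition from about 30%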;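 also: bluetongue infection of BSR cells; cell survival read as ATP light after 72 h; 0% = infected wells without compound and 100% = uninfected wells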
YopH PTP inh = inhibitors of Yersinia enterocolitica YopH tyrosine phosphatase; fluorescence Ex485/Em525; inhibition, %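 (about 10 µM by stock and volumes)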; actives 0.16% (n = 140,000); AID 898;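 active = inhibition of 50% or more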;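 also: controls were vehicle for no effect and minimum signal wells for full effect; inactives centre near -20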
Mtb bLac sens = beta-lactam sensitization of Mtb H37Rv. M. tuberculosis H37Rv growth with meropenem, percent inhibition; hits of this screen are not shown here. inhibition, % at 25 µM. actives 0.27% (n = 330,000);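 active = about 74% or more and at least 40 points above the plate without the antibiotic, then above 30% in a dose series; inconclusive = first-round hits that could not be retested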;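 also: growth measured after seven days incubation then overnight dye step; 0% = bacteria only wells and 100% = bacteria with antibiotic; twin plates without the antibiotic show which effects depend on it; some results filed as inactive read as strong as hits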
Mtb growth = M. tuberculosis H37Rv growth inhibitors, H37Rv strain (AID 1626). actives 0.95% (n = 220,000). M. tuberculosis H37Rv growth inhibition; higher % means a stronger effect. inhibition, % at 10 µM; hits with a dose series show IC50 in µM;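 active = confirmed in a dose series; inconclusive = inhibition above 80% but not taken into the dose series; inactive = below 80% or under 30% at every dose of the series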;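 also: bacteria incubated seven days before Alamar blue readout; 0% = bacteria only wells and 100% = bacteria with antibiotic wells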
* marks the source's active call; other numbers are inactive results; ? = inconclusive; . = not tested or not shown. Some of the compounds tested; rates above refer to the full screens.

SMILES	RecA intein inh	Arbovirus anti	YopH PTP inh	Mtb bLac sens	Mtb growth
O=C(Nc1cccc(C(=O)O)c1)/C(=C\c1ccc2c(c1)OCO2)NC(=O)c1ccccc1	-0.2	1	.	-3	-1%
Cc1ccsc1C(=O)N1CCCC(N2CCN(c3cccc(Cl)c3)CC2)C1 (configuration not stated)	2.2	.	.	5	.
Cc1cc(C)c(C(=O)N(CCN(C)C)CC2CCCN(Cc3ccccc3F)C2)o1 (configuration not stated)	-3.6	.	.	2	.
N#C/C(=C\c1ccc(O)cc1)c1nc2ccccc2o1	27	.	.	3	-1%
COC(=O)c1cccc(S(=O)(=O)N2CCC(C)CC2)c1	-0.3	1	38	-2	3%
COc1cc(OC)cc(-c2ncc3ccccn23)c1	1.3	-14	0	-8	3%
Cn1c(SCC(=O)NCC2CCCO2)nnc1-c1ccc(S(=O)(=O)N2CCCC2)cc1 (configuration not stated)	0.2	-5	-28	-7	-3%
N/C(=N\OC(=O)c1ccccc1)c1ccn[nH]1	-0.8	.	.	5	.
Nc1ccc(Sc2ccc([N+](=O)[O-])cc2)cc1	-1.5	0	.	17	?
CCC(C)NC(=O)C1(O)c2cc(Br)ccc2NC(=O)N1c1cccc(OC)c1 (configuration not stated)	0.0	.	.	-4	.
O=C(NCCc1ccccn1)c1cccnc1Oc1ccc(Cl)cc1	-0.3	.	.	-6	-14%
COc1cc(/C=C2\SC(=O)NC2=O)ccc1Oc1ccc([N+](=O)[O-])cc1[N+](=O)[O-]	17	4	.	87	50%
Cc1ccc(NC(=O)COc2ccccc2CNC(C)(C)CC(C)(C)C)cc1	5.4	-41	-14	100	76%
Cc1ccc(Nc2cc(C)c3c(O)cccc3n2)cc1C	18	.	.	0	23%
O=C(CSCc1c(Cl)cccc1Cl)NCc1ccco1	-1.8	-4	-18	13	0%
O=C1c2cc(F)ccc2OC2(CCNCC2)C12CC(c1ccccc1)=NO2 (configuration not stated)	-0.1	.	.	-1	-6%
O=c1cc(O)c(-c2ccc(Cl)cc2)c(Cl)[nH]1	-7.3	.	.	0	2%
COc1ccc(NC(=O)C(NC(C)=O)C(=O)NCc2ccccc2Cl)cc1 (configuration not stated)	-12	8	-45	-3	-10%
Cc1cc(C)cc(NC(=O)C(OC(=O)c2ccc([N+](=O)[O-])o2)c2ccccc2)c1 (configuration not stated)	-0.2	-4	-17	66	8%
COc1ccccc1N1CCN(C(=S)NC(=O)/C=C/c2ccc(F)cc2)CC1	1.8	.	.	20	4%
Cc1ccc(C(=O)NCC(=O)OCC(=O)c2ccc(Cl)s2)cc1	-0.5	.	.	3	.
COCCNC(=S)N(CCCO)Cc1cc2cc3c(cc2[nH]c1=O)OCCO3	-0.5	.	.	-6	.
COc1cc(OC)c(NC(=O)[C@@H]2CCC(=O)N2C2OC(=O)c3c2ccc(OC)c3OC)cc1Cl (some centres not stated)	0.9	.	.	-4	.
O=C(Nc1ccc(S(=O)(=O)N2CCOCC2)cc1)c1ccccc1	-0.1	.	.	5	.
Cc1ccc(NC(=O)C(C)c2cccc(C(=O)c3ccccc3)c2)cc1O (configuration not stated)	9.1	16	-35	7	8%
SMILES	RecA intein inh	Arbovirus anti	YopH PTP inh	Mtb bLac sens	Mtb growth
CCOC(=O)C1=C(O)C(Nc2nc3ccccc3s2)(C(F)(F)F)N=C1C (configuration not stated)	5.9	22	-1	9	-12%
CC1CN(CCOCCSc2ccccc2)CC(C)O1 (configuration not stated)	-0.3	-5	.	-2	6%
CCOC(=O)c1oc2ccccc2c1NC(=O)c1ccc(Cl)s1	-1.9	1	-44	-7	-3%
COc1ccc(-n2c(C)nc3cc(C(=O)NCCN4CCOCC4)ccc32)cc1	-1.3	7	-5	-4	0%
COc1ccc(S(=O)(=O)N(C)C)cc1NC(C)C(=O)Nc1cccc(C#N)c1 (configuration not stated)	-0.4	0	.	2	-13%
COc1ccc(C(=O)Nc2ccc(Cl)cc2C(=O)NCCN2CCOCC2)cc1	0.5	-7	-7	-4	-3%
Cc1ccc(C)c(S(=O)(=O)NCC(c2ccc3c(c2)OCO3)N2CCOCC2)c1 (configuration not stated)	-0.9	.	.	-10	.
CC(=O)Nc1cccc(Oc2ncccc2[N+](=O)[O-])c1	-4.4	.	.	1	3%
O=C(O)CCCC(=O)NCc1ccccn1	-0.2	4	-11	-8	-6%
CN1CCc2nc(NC(=O)COc3ccc4ccccc4c3)sc2C1	.	-22	.	8	-1%
Cc1ccccc1NC(=O)C1Cc2ccccc2CN1C(=O)c1ccco1 (configuration not stated)	3.2	.	.	-1	.
O=C(c1ccc(S(=O)(=O)N2CCOCC2)cc1)N1CCc2ccccc2C1	3.4	10	-13	9	0%
O=c1c2ccccc2nc(/C=C/c2ccco2)n1-c1ccccc1O	0.2	.	.	-3	-1%
COc1ccc(-c2ccc([C@H]3[C@H]4C=CC[C@@H](C)[C@@H]4C(=O)N3Cc3ccccc3)c(F)c2)cc1	4.3	.	.	3	7%
CCOC(=O)C1=C(CP(=O)(c2ccccc2)c2ccccc2)NC(=O)NC1c1ccc(OC)cc1 (configuration not stated)	3.8	13	-40	-5	5%
C#CCNC(=O)C1=C[C@@H](c2ccc3c(c2)OCO3)C[C@@H](OCCCCO)O1	-2.1	.	.	2	-11%
CN(Cc1ccc(F)cc1)Cc1nc(-c2cnccn2)no1	0.9	2	.	2	4%
NS(=O)(=O)c1ccc(SCc2ccccc2)nc1	-1.2	.	.	2	.
COC(=O)c1ccc(S(=O)(=O)N2C3CCC2CC(NC(=O)NC2CCCCC2)C3)cc1 (configuration not stated)	-0.9	-8	-13	-8	.
Cc1c(CN2CCN(CC(C)C)C(CCO)C2)[nH]c2ccc(Cl)cc12 (configuration not stated)	-1.6	.	.	-3	.
CCCCOC(=O)Nc1nnc(SCCOc2ccc(C)cc2)s1	-3.0	-7	-12	-4	-9%
c1ccc(Cn2nnnc2C(c2cccs2)N2CCc3ccccc3C2)cc1 (configuration not stated)	.	-6	-27	5	-5%
CSCCC(NC(=O)COc1ccccc1)C(=O)N1CCN(C(C)=O)CC1 (configuration not stated)	-5.2	.	.	1	.
CN(C)CCNC(=O)C(=O)c1c(-c2ccccc2)cc2ccccn12	-0.6	6	.	-3	0%
Fc1ccc(COc2ccc3ccccc3c2CNc2nn[nH]n2)cc1	-0.5	2	.	1	8%
SMILES	RecA intein inh	Arbovirus anti	YopH PTP inh	Mtb bLac sens	Mtb growth
Cc1ccc(N(CC(=O)N2CCCC2)S(C)(=O)=O)c(C)c1	-1.2	.	.	-7	.
CCC(C)[C@H]1CN=C(N)N1CCc1cccc2ccccc12 (some centres not stated)	2.6	.	.	-3	15%
CCOC(=O)C(C)N1C(=O)S/C(=C/c2cc(C)n(-c3ccncc3)c2C)C1=O (configuration not stated)	0.9	-14	.	88	2%
Cc1ccccc1OCC(=O)OC(C)CN1CCN(C)CC1 (configuration not stated)	-0.6	5	-40	-4	-15%
[O-]/C(=C(\C(=S)Nc1cccc2ccccc12)[n+]1ccccc1)c1ccc2c(c1)OCCO2	19	-5	-19	12	-2%
COc1ccc(C(=O)N/C(=C\c2cccc([N+](=O)[O-])c2)C(=O)Nc2cccc(C(=O)O)c2)cc1	1.2	3	.	3	-2%
O=C(Nc1ccc(N2CCOCC2)cc1)c1cccc(S(=O)(=O)N2CCC(Cc3ccccc3)CC2)c1	-0.1	2	16	0	1%
N#Cc1ccccc1NC(=O)CSc1nnc(-c2ccccc2)n1-c1ccccc1	-1.0	-3	-18	-7	-2%
CCN1CCN(C(=O)CN(c2ccc(F)cc2)S(=O)(=O)c2ccc(OC)c(OC)c2)CC1	0.2	.	.	-6	.
CCCCCOC(=O)CSc1n[nH]c(=O)[nH]c1=O	-2.1	-4	-22	2	0%
N#C/C(=C\c1ccc(F)cc1)C(=O)Nc1ccccn1	-13	.	.	-7	.
CCN(Cc1ccccc1)C(=O)Cn1cc(S(=O)(=O)NC)c(S(=O)(=O)NC)c1	-1.2	.	.	2	.
O=C(COC(=O)CCS(=O)(=O)c1ccccc1)NC(=O)c1ccc(OC(F)F)cc1	-2.5	.	.	1	.
CN(C)CCNC(=O)C(=O)Nc1cc2c3c(c1)CCC(=O)N3CCC2	-3.2	.	.	-4	.
Clc1ccc2nc(N3CCCCC3)sc2c1	0.7	3	-27	4	1%
Cc1ccc2c(c1)COc1c3ccc(C(=O)O)cc3nn1-2	1.2	.	.	19	.
O=C(Nc1nnc(C2=COCCO2)o1)c1ccc(F)cc1	-6.4	.	.	97	.
CCCn1c(SCC(=O)NCc2ccc(OC)cc2)n[nH]c1=O	2.1	7	.	-8	4%
N#CC1(NC(=O)COc2ccc(S(=O)(=O)N3CCCC3)cc2[N+](=O)[O-])CCCCC1	-6.6	.	.	4	.
O=C(Nc1ccccc1C(=O)N/N=C/c1ccco1)c1ccccc1Cl	3.1	-5	-37	12	-2%
O=C(c1ccccc1)N1CCN(C(=O)c2ccccc2Br)CC1	-4.0	-4	-36	?	-1%
CC1CCCC(NC(=O)COC(=O)CN2C(=O)C3CCCCC3C2=O)C1C (configuration not stated)	1.3	-2	-18	1	-4%
CS(=O)(=O)c1ccc(Cl)c(NC(=O)Cc2c(Cl)cccc2Cl)c1	0.2	-1	.	-4	-1%
Cc1ccc2c(c1)C(=O)CC(O)(C(F)F)O2 (configuration not stated)	-0.9	.	.	5	5%
S=c1[nH]cnc2scc(-c3ccccc3)c12	8.2	0	-9	91	?
SMILES	RecA intein inh	Arbovirus anti	YopH PTP inh	Mtb bLac sens	Mtb growth
COC(=O)c1ccc(C23CC4(C2)[C@H](CN(CC2CCCCC2)[C@@H]4c2ccccc2)C3c2ccc(C(F)(F)F)cc2)cc1 (some centres not stated)	21	.	.	-2	7%
COc1ccccc1OCCCC(=O)Nc1nccs1	-2.0	-3	.	-1	4%
O=C(N/C(=C\c1ccc([N+](=O)[O-])cc1)C(=O)N1CCCCC1)c1ccc(Br)o1	-1.6	.	.	1	.
CC1=NN(C(C#N)c2ccc(F)cc2)C(C)(C)C1 (configuration not stated)	3.2	4	.	-7	-3%
O=C(NCC1CCCO1)c1ccc[nH]1 (configuration not stated)	-0.8	.	.	-1	.
Cc1ccc(S(=O)(=O)c2cc(C#N)c(=O)[nH]c2N)cc1	-1.1	3	-25	-1	-20%
O=C(NCc1ccccc1Cl)c1ccncc1	0.1	.	.	-4	.
Cc1ccc(S(=O)(=O)N=Nc2c(O)[nH]c3ccccc23)cc1	-1.1	-4	-27	-6	-4%
CC(C)CCNC(=O)c1ccc(Cl)c(N)c1	-2.4	-7	.	-4	-4%
O=C(Nc1ccc(Cl)cn1)c1ccccc1F	1.7	-10	-23	-4	-9%
c1ccc2c(c1)CCCN2c1nc(N2CCOCC2)nc(N2CCOCC2)n1	1.0	.	.	14	3%

14 neighbouring compounds out of the list so far, quoted:
SMILES	RecA intein inh	Arbovirus anti	YopH PTP inh	Mtb bLac sens	Mtb growth
O=C(Nc1ccccc1C(=O)N/N=C/c1ccco1)c1ccccc1Cl	3.1	-5	-37	12	-2%
O=C(c1ccccc1)N1CCN(C(=O)c2ccccc2Br)CC1	-4.0	-4	-36	?	-1%
CC1CCCC(NC(=O)COC(=O)CN2C(=O)C3CCCCC3C2=O)C1C (configuration not stated)	1.3	-2	-18	1	-4%
CS(=O)(=O)c1ccc(Cl)c(NC(=O)Cc2c(Cl)cccc2Cl)c1	0.2	-1	.	-4	-1%
Cc1ccc2c(c1)C(=O)CC(O)(C(F)F)O2 (configuration not stated)	-0.9	.	.	5	5%
S=c1[nH]cnc2scc(-c3ccccc3)c12	8.2	0	-9	91	?
COC(=O)c1ccc(C23CC4(C2)[C@H](CN(CC2CCCCC2)[C@@H]4c2ccccc2)C3c2ccc(C(F)(F)F)cc2)cc1 (some centres not stated)	21	.	.	-2	7%
COc1ccccc1OCCCC(=O)Nc1nccs1	-2.0	-3	.	-1	4%
O=C(N/C(=C\c1ccc([N+](=O)[O-])cc1)C(=O)N1CCCCC1)c1ccc(Br)o1	-1.6	.	.	1	.
CC1=NN(C(C#N)c2ccc(F)cc2)C(C)(C)C1 (configuration not stated)	3.2	4	.	-7	-3%
O=C(NCC1CCCO1)c1ccc[nH]1 (configuration not stated)	-0.8	.	.	-1	.
Cc1ccc(S(=O)(=O)c2cc(C#N)c(=O)[nH]c2N)cc1	-1.1	3	-25	-1	-20%
O=C(NCc1ccccc1Cl)c1ccncc1	0.1	.	.	-4	.
Cc1ccc(S(=O)(=O)N=Nc2c(O)[nH]c3ccccc23)cc1	-1.1	-4	-27	-6	-4%
